Source: PubChem (National Center for Advancing Translational Sciences (NCATS))
Anthrax LT inh – qHTS Assay for Anthrax Lethal Toxin Internalization; actives 0.67% (n = 70,000); AID 912, 2007; Cells, anthrax lethal toxin internalization, FRET ratio (460/530); Potency, µM (titrated, usually from 40 µM), for inactives: at the highest dose activity change, negative = inhibition, most hits filed as inhibitors; active = well fitted falling ratio curve with the 530 nm signal flat; inconclusive = other ratio curves, or a change in one channel alone; inactive = flat curves in the ratio and both channels; the % refers to the ratio; also: % is scaled to controls: 0 for no effect and ±100 for the full control effect; nearly all actives have a fitted effect of over 50% in size; tested in ME-180 cells; beta-lactamase reporter
Prx2 Sm inh – Schistosoma Mansoni Peroxiredoxins (Prx2); AID 448, 2006; Potency, µM; Schistosoma mansoni peroxiredoxin 2 (Prx2); actives 0.07% (n = 65,000); S. mansoni Prx2 activity coupled to TGR/GSH (TGR is thioredoxin glutathione reductase), NADPH fluorescence loss, qHTS; some inactives read as strong as hits; active means full or partial inhibition curve with a strong effect at the top dose; inconclusive means weaker partial or single-point curve; inactive means no accepted curve; also: series up to 57 µM; many of its hits are not listed in these tables
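qHTS, coupled TGR/Prx2 format; 15 min compound preincubation at RT; reaction started with H2O2 (2.5 mM aliquot); kinetic NADPH fluorescence decrease, ex 365/em 450 nm.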
The depositor's hits bear a star; ? = inconclusive; . = no result given; & = joins results of further samples; [ ] = remark or other dose. Potency is read from the fitted curve at half-maximal effect.

Each structure is followed by: Anthrax LT inh | Prx2 Sm inh
1) Cc1cc(C)c2c(=O)n(CC(=O)NCCCN3CCOCC3)sc2n1
  ? | ?
2) Cc1cc(C)cc(CC2CC(=O)N(c3ccc4c(c3)OCCO4)C2=O)c1 (stereo not given)
  18% | >57
3) O=S(=O)(c1ccccc1)c1nc(-c2ccccc2)oc1NCc1cccnc1
  24% | >57
4) COc1ccc(NC(=O)Nc2nnc(N3CCCCC3C)s2)cc1OC (stereo not given)
  4% | .
5) CCn1cc(C(=O)NCCN(C)CCc2ccccc2)c(=O)c2cc(S(=O)(=O)N(C)C)ccc21
  2% | >57
6) CCC(=O)Nc1ccc(NC(=O)C23CC4CC(CC(C4)C2)C3)cn1
  7% | >57
7) O=c1o[nH]c(-c2ccccc2)c1C1=NCCCCC1
  -14% | >57
8) COCc1cc(C)nc2sc3c(=O)n(Cc4ccco4)nnc3c12
  -2% | >57
9) CC(C)(Oc1ccc(Cl)cc1)C(=O)NCc1ccco1
  -4% | .
10) CCN(CC)CC(O)Cn1c2ccccc2c2ccccc21 (stereo not given)
  ? | .
11) OC1(c2ccc(Cl)cc2)CCN(Cc2c[nH]c3ccccc23)CC1
  ? | >57&>57
12) c1ccc(SCCc2ccncc2)cc1
  4%[8 µM] | >57
13) CCOC(=O)C1CCN(C/C=C/c2ccccc2OC)CC1
  -4% | >57
14) COCCNC(=O)C(C)OC(=O)c1nsc(Cl)c1Cl (stereo not given)
  1% | >57
15) Cn1c(=O)c(=O)n(C)c2cc(S(=O)(=O)Nc3ccc4c(c3)OCCO4)ccc21
  ? | >57
16) COC(=O)c1sccc1NC(=O)c1ccco1
  3% | >57
17) CNc1ncnc2ccc(-c3ccccc3CN(C)C)cc12
  -4% | >57
18) COc1ccc(-c2csc(N3CCC(C(N)=O)(N4CCCCC4)CC3)n2)cc1
  ? | >57
19) CC(=O)N[C@@H](CC(=O)O)C(=O)N[C@@H](CCC(=O)O)C(=O)O
  5% | >57&>57
20) CCOC(=O)C1CCN(C(=O)COc2ccc(N(C)S(=O)(=O)c3cccs3)cc2)CC1
  ? | >57
21) c1cc(-c2noc(CCC3CCCC3)n2)ccn1
  -11% | >57
22) O=c1[nH]c(=O)n(CCC2=CCCCC2)c(O)c1C=NCCCn1ccnc1
  -4% | >57
23) CC(C)Cn1c(N)c(C(=O)COC(=O)C2=COCCO2)c(=O)n(C)c1=O
  -5% | >57
24) Cc1nn(C)c(C)c1S(=O)(=O)N(CC(=O)Nc1ccc2c(c1)OCO2)c1ccc(C(C)C)cc1
  -1% | >57
25) COc1ncc2nc(-c3ccc(F)cc3)c(=O)n(C)c2n1
  -10% | >57
26) CCc1c(C)n([O-])c2c([n+]1=O)CCC2
  1% | .
27) COc1ccc(Cl)cc1N1C(=O)C2CCCN2C1c1sccc1C (stereo not given)
  -8% | >57
28) O=C(N1CCOCC1)N1CCN(c2ccccn2)CC1
  . | >57
29) CCOC(=O)N/N=C1/C[C@@H](O)[C@@H](O)[C@@H]2[C@@H]3C(=O)N(C[C@@H]4CCCO4)C(=O)[C@H]3CC[C@@H]12
  -6%[8 µM] | .
30) Clc1ccc(Cn2c(CN3CCCC3)nc3ccccc32)cc1
  -1%[3.58 µM] | >57&>57
31) COc1ccc(C(=O)Nc2cccc(C(C)=O)c2)cc1S(=O)(=O)N1CCOCC1
  -3% | .
32) CCn1c(SCC(=O)Nc2ccc3c(c2)OCO3)nc2c(c1=O)SC(C)C2 (stereo not given)
  ? | >57
33) COc1ccc(C(O)C(CN2CCOCC2)c2ccccc2)cc1F (stereo not given)
  2% | >57
34) CC(C)NC(=O)N1CC[C@@]2(CCCN(C(=O)c3cccn3C)C2)C1
  -4% | >57
35) CCC(c1nnnn1Cc1ccco1)N(CCN1CCOCC1)Cc1cc2cc(C)ccc2[nH]c1=O (stereo not given)
  ? | >57
36) COc1ccc(OC)c(NC(=O)C2CCN(c3ncccn3)CC2)c1
  -2% | >57
37) Cc1ccc(S(=O)(=O)N2CCC(C(=O)N[C@@H](C)C(=O)NCc3ccccc3)CC2)cc1
  3% | >57
38) CCCCn1ccnc1C(=O)c1ccc(S(=O)(=O)N(CCOC)CCOC)cc1
  -3% | >57
39) COC(=O)[C@](C)(N)Cc1ccc(O)cc1
  -4% | >57
40) Cc1noc(C)c1S(=O)(=O)N(CC(=O)NCc1ccc(Cl)cc1)c1ccc2c(c1)OCO2
  ? | >57
41) COc1ccccc1CN1CCC2(CC1)CCN(C(=O)c1cccn1C)CC2
  0% | >57
42) O=C(Nc1ccc(N2CCN(c3ccc(O)cc3)CC2)cc1)Oc1ccccc1
  -10% | >57
43) CCNC(=O)c1cc2c(=O)n3cccc(C)c3nc2n1C
  14% | >57
44) CN(C)c1ccc(-c2ccc3ncnc(N(C)Cc4ccco4)c3c2)cc1
  10µM* | >57
45) Cc1ccc(CC23CN4CCN(CC(C4)C2O)C3)c(C)c1 (stereo not given)
  . | >57
46) O=C(C(c1ccccc1)c1ccccc1)N(Cc1ccco1)C1CCS(=O)(=O)C1 (stereo not given)
  -14% | >57
47) N=c1oc2ccc3ccccc3c2cc1-c1nnc2n1CCCCC2
  ? | >57
48) CCCn1c(NC(=O)c2ccc(C)cc2)nc2ccccc21
  3% | >57
49) CCN(CC)c1ccc(C2C(C(=O)OCCOC)=C(C)NC3=C2C(=O)CC(C)(C)C3)cc1 (stereo not given)
  20% | >57
50) c1ccc(CNc2cc(-c3ccoc3)ncn2)cc1
  6% | >57
51) C/C(CCC(=O)OC[C@@H]1O[C@H](C#Cc2ccccc2)C=C[C@@H]1Oc1ccc(C)cc1)=N/O[C@@H](C)c1cn([C@H](CO)Cc2ccccc2)nn1
  ? | .
52) CCOC(=O)C1CCCN(C(=O)CN2CCN(Cc3ccc(Cl)cc3)C2=O)C1 (stereo not given)
  6% | >57
53) COCCn1cc(C(=O)NCc2cccs2)c2c3ccccc3n(C)c2c1=O
  10% | >57
54) O=C(C1CCC(Cn2c(=O)[nH]c3ccccc3c2=O)CC1)N1CCN(c2ccccc2)CC1 (stereo not given)
  -5% | >57
55) Cc1cc(Nc2ccc(Br)cc2F)n2ncnc2n1
  -1% | >57
56) COc1cc(C)nc(N2CCCC(C(=O)Nc3cccc(Cl)c3C)C2)n1 (stereo not given)
  -11% | >57
57) COc1ccc2oc(-c3ccccc3)c(C(=O)N3CCOCC3)c2c1
  ? | .
58) O=c1c2ccccc2nc(-c2ccco2)n1/N=C/c1ccco1
  -11% | >57
59) COc1cccc(N(CC(=O)Nc2cccc(F)c2)S(C)(=O)=O)c1
  -15% | .
60) O=C(Nc1ccncc1)C1(c2ccccc2)CCCC1
  -12% | >57

Gathered by group, those above with fluorine (4)
Each structure is followed by: Anthrax LT inh | Prx2 Sm inh
25) COc1ncc2nc(-c3ccc(F)cc3)c(=O)n(C)c2n1
  -10% | >57
33) COc1ccc(C(O)C(CN2CCOCC2)c2ccccc2)cc1F (stereo not given)
  2% | >57
55) Cc1cc(Nc2ccc(Br)cc2F)n2ncnc2n1
  -1% | >57
59) COc1cccc(N(CC(=O)Nc2cccc(F)c2)S(C)(=O)=O)c1
  -15% | .

Compounds from the list above with an aryl thioether with sulfur outside any ring, in the order listed:
Each structure is followed by: Anthrax LT inh | Prx2 Sm inh
12) c1ccc(SCCc2ccncc2)cc1
  4%[8 µM] | >57
32) CCn1c(SCC(=O)Nc2ccc3c(c2)OCO3)nc2c(c1=O)SC(C)C2 (stereo not given)
  ? | >57

(further entries)
Each structure is followed by: Anthrax LT inh | Prx2 Sm inh
61) CCOC(=O)N1CCN(C(=O)C2CC(=O)N(c3ccc(OC)cc3)C2c2ccc(OC)cc2)CC1 (stereo not given)
  -11% | >57
62) O=C(Nc1ccc(Cl)c(C(F)(F)F)c1)C1CCCN(S(=O)(=O)c2cnc[nH]2)C1 (stereo not given)
  2% | >57
63) O=P(O)(CCc1ccncc1)CN1CCCCC1
  -1% | .
64) CCC(C)(C)n1nnnc1C(c1ccc2ncccc2c1)N1CCN(c2nc3ccccc3s2)CC1 (stereo not given)
  ? | >57
65) Cc1cc(C)n(-c2ncnc3sc4c(c23)CCCC4)n1
  -19% | >57
66) N#Cc1c(N2CCCC2)nc(N)c2c(N)nc(N3CCCC3)cc12
  -15% | >57
67) CCc1nnc(NC(=O)c2cccc(C(=O)Nc3nnc(CC)s3)n2)s1
  . | >57
68) Cn1c(C(=O)N2CCN(Cc3ccc4c(c3)OCO4)CC2)cc2sccc21
  -5% | ?
69) COc1ccc(-c2nnc(SCC(=O)Nc3ccccc3)n2C)cc1
  -8% | >57
70) Cc1ccc(CNC(=O)C2CCC(=O)N2C2CCCCC2)cc1 (stereo not given)
  11% | >57
71) COc1ccc2nc(NS(=O)(=O)c3ccc(NC(C)=O)cc3)sc2c1
  -9% | >57
72) CC1(N2CCOCC2)CC2(O)C(=[N+]1[O-])CCc1c2no[n+]1[O-] (stereo not given)
  ? | >57
73) CN(C)c1ccc(C(=O)OCC(=O)NC2CCCCC2)cc1
  -6% | >57
74) O=S(=O)(c1ccc(-n2cnnn2)cc1)N(C1CCCCC1)C1CCCCC1
  -6% | >57
75) N#Cc1ccccc1-c1ccc2ncnc(NCc3cccs3)c2c1
  ? | >57
76) COc1cc(CNc2ccc(N3CCOCC3)c(C(=O)O)c2)ccc1OCC(N)=O
  9% | >57
77) CCOC(=O)C1CCN(C(=O)CSc2n[nH]c(=O)[nH]c2=O)CC1
  -12% | >57
78) COc1ccccc1CNC(=O)c1nnc(Cc2ccc(Cl)cc2)o1
  -16% | >57
79) CC(C)c1ccc(NC(=O)C2CC(=O)N(C(C)C)C2)cc1 (stereo not given)
  -3% | >57
80) O=C(Cn1cc2c(n1)CCCC2)NCc1cccs1
  7% | >57
81) On1onc2c3cc(-c4ccccc4)nc3ccc21
  ? | >57
82) COc1ccc(C(=O)N2CCC[C@@]3(CCN(CC(C)C)C3)C2)cc1
  ? | >57
83) CCCC(=O)Nc1ccc(OCC(=O)OC)cc1
  13% | >57
84) O=c1c2cnn(-c3ccc(F)cc3)c2ncn1Cc1cccnc1
  -2% | >57
85) O=C(NC1CCc2ccccc21)C1CCN(S(=O)(=O)c2ccc(-n3cnnn3)cc2)CC1 (stereo not given)
  -11% | >57
86) O=C(Cc1ccccc1)NC(NCCCN1CCOCC1)(C(F)(F)F)C(F)(F)F
  -11% | >57
87) COc1ccc(S(=O)(=O)NCCC(=O)NC(C)c2ccccc2)cc1 (stereo not given)
  ? | >57
88) CCN1CCN(c2ncnc3c2sc2nc(N4CCOCC4)c4c(c23)CCC4)CC1
  ? | >57
89) O=C(NCCC1=CCCCC1)C1CCCN(S(=O)(=O)c2ccc(F)cc2)C1 (stereo not given)
  . | >57
90) CC(C)NC(=O)c1ccc(CS(=O)(=O)c2ccc(Br)cc2)o1
  12% | >57

Reprinted from the part before: 4 entries, followed by the next part.
Each structure is followed by: Anthrax LT inh | Prx2 Sm inh
87) COc1ccc(S(=O)(=O)NCCC(=O)NC(C)c2ccccc2)cc1 (stereo not given)
  ? | >57
88) CCN1CCN(c2ncnc3c2sc2nc(N4CCOCC4)c4c(c23)CCC4)CC1
  ? | >57
89) O=C(NCCC1=CCCCC1)C1CCCN(S(=O)(=O)c2ccc(F)cc2)C1 (stereo not given)
  . | >57
90) CC(C)NC(=O)c1ccc(CS(=O)(=O)c2ccc(Br)cc2)o1
  12% | >57
91) COC(=O)[C@@]1(Cc2ccccc2)[C@H]2c3cc(C(=O)N(C)C)n(C[C@H](O)CO)c3C[C@H]2CN1C(=O)c1ccccc1
  ? | >57
92) COc1cccc(C2C(C(=O)c3ccco3)=C(O)C(=O)N2CCCN2CCOCC2)c1OC (stereo not given)
  -10% | >57
93) C=CCOC(=O)c1ccccc1C(=O)OCC=C
  16% | .
94) COCCN(C(=O)C1CC1)c1nnc(-c2cccc(C)c2)s1
  -9% | >57
95) CCOc1ccc(NC(=O)c2cccnc2C(=O)O)cc1
  ? | >57
96) COc1ccccc1OCC(=O)NCc1cccs1
  -14% | >57
97) CC(=O)n1nc2nc(C)cc(C)c2c1N
  3% | >57
98) CC(C)Oc1ccc(-c2cc(=O)[nH]c(=O)[nH]2)cc1
  -2% | .
99) CCOC(=O)Cc1csc(SCC(=O)Nc2cccc(C#N)c2)n1
  4% | >57
100) Cc1ccc(C(c2nnnn2CCc2ccccc2)N2CCSCC2)cc1 (stereo not given)
  -31% | >57
101) C=CCn1c(COC)nnc1SCC(=O)c1ccc(F)cc1
  -7% | >57
102) O=C1c2ccccc2C(=O)N1CCCn1c(=O)oc2ccccc21
  . | >57
103) COC(=O)c1ccc(C(NC(=O)OCc2ccccc2)/C(C)=C/[C@@H](C)C(=O)NCc2cc(F)cc(F)c2)cc1 (stereo not given in full)
  4% | .
104) O=C(CN1C(=O)COc2ccccc21)N(Cc1cccnc1)Cc1ccccc1F
  -26% | >57
105) CC1CCCC(NC2CCCCNC2=O)C1 (stereo not given)
  -13% | .
106) CN(C)Cc1cc(CCNC(=O)c2ccc(Cl)cc2)ccc1O
  6% | >57
107) O=C(O)CCC(=O)c1ccc[nH]1
  -9%[8 µM] | >57

An excerpt; rates above refer to the full screens.
